Vaccinia stage – Vaccinia orthopox stage-specific inhibition | Vaccinia-infected cells, mCherry/Venus stage reporter fluorescence; hits give low values; some inactives read as strong as hits | activity change (mCherry), % (concentration not given with the values) | 89,000 tested, 0.01% active;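 active = mCherry past -33% and 40 or more points under the early reporter, replicates agreeing; inconclusive = past -33% without that gap or agreement; tested in A549 cells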;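 also: scaled between vehicle wells and reference inhibitor wells; 23 nL library stock went into each well; one replicate is shown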
Vaccinia stage Venus – second read-out of Vaccinia stage, no call of its own (marks repeat the call); activity change (Venus), %; measured here: Venus reporter, other viral stage;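 negative = less Venus signal; first of two replicates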
* marks the source's active call; other numbers are inactive results; ? = inconclusive; / = no result given. This is a subset; the hit share may differ from the screen's.

1) O=C(Nc1cc(F)ccc1F)N1CC(=O)N2[C@H](CO)[C@@H](c3ccc(-c4cccc(F)c4)cc3)[C@@H]2C1
2) C[C@H](CO)N1C[C@H](C)[C@@H](CN(C)CC2CCCCC2)OCCCC[C@H](C)Oc2ccc(NC(=O)Nc3ccc4c(c3)OCO4)cc2C1=O
3) CC(C)NC(=O)Nc1ccc2c(c1)C(=O)N([C@@H](C)CO)C[C@@H](C)[C@H](CN(C)Cc1ccncc1)O2
4) C[C@@H]1CN([C@H](C)CO)C(=O)c2cc(C#CC3(O)CCCC3)cnc2O[C@H]1CN(C)S(=O)(=O)c1ccccc1
5) C[C@@H]1CN([C@H](C)CO)C(=O)Cc2cc(NS(=O)(=O)c3ccc(Cl)cc3)ccc2O[C@@H]1CN(C)C(=O)NC1CCCCC1
Assay by compound,1,2,3,4,5
Vaccinia stage,-17,22,9,13,-2
Vaccinia stage Venus,-9,8,7,2,-4

6) Cc1noc(C)c1S(=O)(=O)Nc1ccc2c(c1)C(=O)N([C@H](C)CO)C[C@H](C)[C@@H](CN(C)S(C)(=O)=O)OCCCC[C@H](C)O2
7) O=C(CCN1CCCCC1)NCC[C@H]1CC[C@@H](NC(=O)c2ccc(F)cc2)[C@@H](CO)O1
8) CCCNC(=O)[C@H]1[C@H](CO)[C@H]2Cn3c(ccc(-c4ccccc4F)c3=O)[C@@H]1N2S(C)(=O)=O
9) CN1C(=O)c2cc(NS(=O)(=O)c3ccccc3F)ccc2OC[C@H]2O[C@H](CC(=O)NC3Cc4ccccc4C3)CC[C@@H]21
10) O=C(CC1CC1)Nc1ccc2c(c1)[C@H]1C[C@@H](CC(=O)N3CCc4ccccc4C3)O[C@@H](CO)[C@H]1O2
Assay by compound,6,7,8,9,10
Vaccinia stage,18,10,10,1,5
Vaccinia stage Venus,10,13,12,7,-4

11) Cc1ccc(S(=O)(=O)Nc2ccc3c(c2)C(=O)N([C@@H](C)CO)C[C@H](C)[C@H](CN(C)Cc2ccc4c(c2)OCO4)O3)cc1
12) C[C@@H]1CN([C@@H](C)CO)S(=O)(=O)c2ccc(C#Cc3cccc(F)c3)cc2O[C@@H]1CN(C)C
13) C[C@H]1CN([C@@H](C)CO)C(=O)c2cc(NC(=O)CCC(F)(F)F)ccc2O[C@H]1CN(C)C(=O)Nc1ccc2c(c1)OCO2
14) C[C@@H]1CN([C@@H](C)CO)C(=O)c2cccc(NC(=O)c3nc4ccccc4s3)c2O[C@@H]1CN(C)C(=O)Nc1cccc2ccccc12
15) C[C@@H](NC(=O)C[C@@H]1CC[C@@H]2[C@H](COC[C@H](O)CN2Cc2cc(F)ccc2F)O1)c1ccccc1
Assay by compound,11,12,13,14,15
Vaccinia stage,25,?,-11,20,-11
Vaccinia stage Venus,11,/,-8,19,0

16) CC(C)NC(=O)Nc1ccc2c(c1)C(=O)N([C@H](C)CO)C[C@H](C)[C@@H](CN(C)Cc1ccncc1)OCCCC[C@@H](C)O2
17) COc1ccccc1CN1[C@@H](CO)[C@@H]2c3ccccc3N(C(=O)C3CCOCC3)C[C@@H]21
18) C[C@H]1CN([C@@H](C)CO)C(=O)c2cc(-c3ccncc3)cnc2O[C@@H]1CN(C)C(=O)c1ccc(F)cc1
19) COc1cccc(NC(=O)N(C)C[C@@H]2Oc3cc(C#Cc4ccncc4)ccc3S(=O)(=O)N([C@@H](C)CO)C[C@@H]2C)c1
20) COc1ccc(NC(=O)N(C)C[C@@H]2OCCCC[C@H](C)Oc3ccc(NS(C)(=O)=O)cc3C(=O)N([C@@H](C)CO)C[C@@H]2C)cc1
Assay by compound,16,17,18,19,20
Vaccinia stage,31,0,24,?,6
Vaccinia stage Venus,5,5,-2,/,2

21) C[C@@H]1CN([C@@H](C)CO)C(=O)c2cccc(NC(=O)c3ccncc3)c2O[C@H]1CN(C)CC1CC1
22) O=C(c1ccncc1)N1CC(=O)N2[C@H](C1)[C@H](c1ccc(/C=C/c3ccccc3)cc1)[C@@H]2CO
23) COc1ccc2c3c(n(C)c2c1)[C@H](CO)N(C(=O)Nc1ccc(F)cc1)CC31CCN(S(=O)(=O)c2cn(C)cn2)CC1
24) COc1ccccc1C#Cc1cnc2c(c1)C(=O)N([C@@H](C)CO)C[C@@H](C)[C@H](CN(C)C(C)=O)O2
25) CCCNC(=O)[C@H]1[C@H](CO)[C@H]2Cn3c(ccc(-c4cccc(F)c4)c3=O)[C@@H]1N2C(=O)c1ccccn1
Assay by compound,21,22,23,24,25
Vaccinia stage,11,?,-22,10,5
Vaccinia stage Venus,5,/,-21,6,3

26) COc1ccc2c3c([nH]c2c1)[C@@H](CO)N(Cc1ccccc1OC)CC31CN(C)C1
27) C[C@@H]1CN([C@@H](C)CO)C(=O)c2ccccc2-c2ccccc2CO[C@H]1CN(C)C(=O)[C@@H]1CCCN1C
28) COc1cccc(NC(=O)C[C@@H]2CC[C@H]3[C@H](COc4ccc(NC(C)=O)cc4C(=O)N3C)O2)c1
29) CO[C@H]1CN(C)C(=O)c2ccc(NC(=O)NC(C)C)cc2OC[C@@H](C)N(C(=O)CN(C)C)C[C@@H]1C
30) COc1ccc2c3c([nH]c2c1)[C@H](CO)N(C)CC31CN(S(=O)(=O)c2ccc(C)cc2)C1
Assay by compound,26,27,28,29,30
Vaccinia stage,-2,19,6,4,-15
Vaccinia stage Venus,-1,8,10,12,-9

31) COc1ccc2c3c([nH]c2c1)[C@@H](CO)N(C(=O)CN1CCOCC1)CC31CN(CC2CCCC2)C1
32) C[C@H]1CCCCO[C@H](CN(C)C(=O)NC2CCCCC2)[C@@H](C)CN([C@@H](C)CO)C(=O)c2cc(NS(=O)(=O)c3cn(C)cn3)ccc2O1
33) C[C@@H]1CN([C@H](C)CO)C(=O)CCCn2cc(nn2)CO[C@@H]1CN(C)S(=O)(=O)c1cccc(F)c1
34) COc1ccc(S(=O)(=O)Nc2ccc3c(c2)C(=O)N([C@H](C)CO)C[C@H](C)[C@H](CN(C)C(=O)Nc2ccccc2)O3)cc1
35) CO[C@H]1CN(C)C(=O)c2ccc(NC(=O)C3CCC3)cc2OC[C@H](C)N(Cc2ccncc2)C[C@H]1C
Assay by compound,31,32,33,34,35
Vaccinia stage,4,17,0,4,8
Vaccinia stage Venus,0,5,3,10,12

36) C[C@@H]1CN([C@H](C)CO)C(=O)c2cccc(NC(=O)C3CCOCC3)c2O[C@@H]1CN(C)Cc1ccc(Cl)c(Cl)c1
37) CN1c2ccc(C#Cc3cccnc3)cc2[C@H]2[C@H](CCN2S(=O)(=O)c2ccc(F)cc2)[C@@H]1CO
38) COc1ccc(S(=O)(=O)N[C@H]2CC[C@@H](CC(=O)NCCc3ccccc3)O[C@@H]2CO)cc1
39) CC(C)CC#Cc1ccc2c(c1)O[C@@H](CN(C)C(=O)C1CCCCC1)[C@@H](C)CN([C@H](C)CO)S2(=O)=O
40) CCCNC(=O)N1[C@H](C#N)[C@H](c2ccc(-c3cccnc3)cc2)[C@H]1CO
Assay by compound,36,37,38,39,40
Vaccinia stage,-13,1,3,?,17
Vaccinia stage Venus,-12,11,2,/,6

41) C[C@@H]1CN([C@@H](C)CO)C(=O)c2cc(NC(=O)c3ccccc3)ccc2O[C@@H](C)CCCCO[C@H]1CN(C)C(=O)c1ccncc1
42) O=C(N[C@@H]1C=C[C@@H](CC(=O)N2CCN(c3ccccc3)CC2)O[C@@H]1CO)c1ccccc1
43) Cc1ccc(S(=O)(=O)Nc2cccc3c2O[C@@H](CN(C)C)[C@H](C)CN([C@@H](C)CO)C3=O)cc1
44) O=C(NC[C@@H]1[C@@H](c2ccccc2)[C@H](CO)N1C(=O)Cc1ccncc1)C1CCC1
45) CCCNC(=O)C[C@H]1CC[C@@H]2[C@H](COc3ccc(NS(=O)(=O)c4ccccc4C)cc3C(=O)N2C)O1
Assay by compound,41,42,43,44,45
Vaccinia stage,2,4,10,-7,4
Vaccinia stage Venus,-1,4,3,-5,6

46) C[C@H]1CN([C@@H](C)CO)S(=O)(=O)c2ccc(-c3cccnc3)cc2O[C@H]1CN(C)Cc1cncnc1
47) CN(C)C(=O)[C@@H]1[C@@H](CO)[C@@H]2Cn3c(ccc(C4=CCCC4)c3=O)[C@H]1N2CCC(F)(F)F
48) COCC(=O)Nc1ccc2c(c1)C(=O)N(C)C[C@@H](OC)[C@@H](C)CN(Cc1cc(F)ccc1F)[C@H](C)CO2
49) Cc1ccc(S(=O)(=O)Nc2ccc3c(c2)C(=O)N([C@H](C)CO)C[C@H](C)[C@@H](CN(C)Cc2ccc(C(=O)Nc4ccccc4N)cc2)O3)cc1
50) C[C@@H]1CN([C@@H](C)CO)C(=O)Cc2cc(NC(=O)Cn3cnnn3)ccc2O[C@@H]1CN(C)Cc1ccc(Cl)c(Cl)c1
Assay by compound,46,47,48,49,50
Vaccinia stage,5,6,-11,-5,2
Vaccinia stage Venus,6,10,-13,-13,1

51) CCCc1cn(CC[C@@H]2CC[C@H](NC(=O)C3CCCCC3)[C@H](CO)O2)nn1
52) C[C@H]1CN([C@@H](C)CO)S(=O)(=O)c2ccc(C#CCN(C)C)cc2O[C@@H]1CN(C)C(=O)CC1CC1
53) CC(C)NC(=O)N1C[C@H]2[C@@H](c3ccccc31)[C@H](CO)N2Cc1ccc(Cl)cc1
54) COc1ccc(CN(C)C[C@H]2Oc3ccc(NC(=O)Nc4ccc(F)cc4)cc3CC(=O)N([C@@H](C)CO)C[C@@H]2C)cc1
55) CNC(=O)C[C@@H]1CC[C@@H]2[C@H](COc3ccc(NC(=O)c4cccc(OC)c4)cc3C(=O)N2C)O1
Assay by compound,51,52,53,54,55
Vaccinia stage,7,-10,10,-14,-4
Vaccinia stage Venus,12,8,11,-5,-2

56) COc1ccc2c3c(n(C)c2c1)[C@@H](CO)N(C(=O)c1ccccc1)CC31CN(C(=O)c2ccccc2)C1
57) O=C(Nc1ccccc1Cl)N1[C@H](CO)[C@@H]2c3ccccc3NC[C@@H]21
58) C[C@@H]1CN([C@H](C)CO)C(=O)c2cc(C#CCN(C)C)cnc2O[C@@H]1CN(C)C(=O)CN1CCOCC1
59) C/C=C/c1ccc([C@H]2[C@@H](CO)N(CCC(F)(F)F)[C@@H]2CNC(=O)C2CCC2)cc1
60) CCCN(C)C[C@@H]1OCCCC[C@H](C)Oc2ccc(NC(=O)CCC(F)(F)F)cc2C(=O)N([C@H](C)CO)C[C@@H]1C
Assay by compound,56,57,58,59,60
Vaccinia stage,-19,5,34,0,-8
Vaccinia stage Venus,-13,7,17,2,-3

61) Cc1nn(C)cc1NC(=O)C[C@@H]1CC[C@@H]2[C@H](COc3ccc(NC(=O)NC(C)C)cc3C(=O)N2C)O1
62) COc1ccccc1S(=O)(=O)N[C@H]1CC[C@H](CCNC(=O)C2CCCC2)O[C@@H]1CO
63) CC(=O)N1CCCCN2[C@H](C1)[C@@H](c1ccc(-c3cccc(C(=O)N(C)C)c3)cc1)[C@@H]2CO
64) CC=Cc1ccc2n(c1=O)C[C@@H]1[C@@H](CO)[C@H](C(=O)NCc3ccc4c(c3)OCO4)[C@H]2N1C(=O)C1CC1 (mixture of isomers)
65) CCNC(=O)C[C@@H]1CC[C@@H]2[C@@H](COc3ccc(NC(=O)c4cc(C)on4)cc3C(=O)N2C)O1
Assay by compound,61,62,63,64,65
Vaccinia stage,-6,1,31,8,5
Vaccinia stage Venus,0,13,18,2,-3

Brought forward from above: three compounds; new compounds follow.
63) CC(=O)N1CCCCN2[C@H](C1)[C@@H](c1ccc(-c3cccc(C(=O)N(C)C)c3)cc1)[C@@H]2CO
64) CC=Cc1ccc2n(c1=O)C[C@@H]1[C@@H](CO)[C@H](C(=O)NCc3ccc4c(c3)OCO4)[C@H]2N1C(=O)C1CC1 (mixture of isomers)
65) CCNC(=O)C[C@@H]1CC[C@@H]2[C@@H](COc3ccc(NC(=O)c4cc(C)on4)cc3C(=O)N2C)O1
66) C[C@H](CO)N1C[C@H](C)[C@@H](CN(C)C(=O)c2ccccc2)Oc2cc(-c3cccc(C#N)c3)ccc2S1(=O)=O
67) O=C(CC(F)(F)F)N1C[C@@H]2[C@H](c3ccccc31)[C@H](CO)N2C(=O)C1CCOCC1
68) COc1ccc(CNC(=O)C[C@H]2C[C@@H]3c4cc(N(C)C)ccc4O[C@@H]3[C@@H](CO)O2)cc1
69) C[C@@H]1CN([C@@H](C)CO)C(=O)c2cc(C#CCc3ccccc3)cnc2O[C@H]1CN(C)Cc1cccc(F)c1
70) C[C@H](CO)N1C[C@H](C)[C@H](CN(C)S(=O)(=O)c2ccccc2)Oc2ccc(NC(=O)Cc3cn(C)c4ccccc34)cc2CC1=O
Assay by compound,63,64,65,66,67,68,69,70
Vaccinia stage,31,8,5,-17,6,21,?,-10
Vaccinia stage Venus,18,2,-3,-27,14,20,/,6

71) O=C(Nc1ccccc1)N[C@@H]1CC[C@H](CCn2cc(C3(O)CCCC3)nn2)O[C@H]1CO
72) C[C@@H]1CN([C@@H](C)CO)C(=O)c2c(c3ccccc3n2C)-c2ccccc2CO[C@@H]1CN(C)S(=O)(=O)c1cccc(F)c1
73) C[C@@H]1CN([C@H](C)CO)C(=O)c2cccc(NC(=O)c3nc4ccccc4s3)c2O[C@H]1CN(C)Cc1ccc2c(c1)OCO2
74) O=C(N[C@H]1CC[C@@H](CC(=O)N2CCOCC2)O[C@@H]1CO)c1ccccn1
75) O=C(C[C@@H]1CC[C@@H]2[C@H](COC[C@@H](O)CN2Cc2cc(F)cc(F)c2)O1)NC1CCC1
76) COC(=O)[C@]1(Cc2ccccc2)N=C(c2ccc(OCCCO)cc2)O[C@@H]1c1ccccc1N=[N+]=[N-]
Assay by compound,71,72,73,74,75,76
Vaccinia stage,-3,?,0,16,-1,?
Vaccinia stage Venus,-2,/,-1,8,-5,/
